# Rce1 inhib – yeast Rce1p protease inhibitors, primary screen, biochemical, fluorescence, cell-free homogeneous | calls only | AID 2563, 2010 | CAAX prenyl protease 2 (Saccharomyces cerevisiae (strain ATCC 204508 / S288c)), Q03530 | yeast membranes, quenched prenylated peptide cleavage fluorescence | 0.27% of 290,000 active;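 active = fall in fluorescence gain of 50% or more versus controls, with final raw signal at or below 3038400; inconclusive = same 50% fall but final raw signal above 3038400; inactive = fall in fluorescence gain under 50%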;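 also: plate controls were neutral control wells for no effect and wells lacking membranes for full effect; tested at 10 µM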
# Target sequence (Q03530 whole entry, looked up): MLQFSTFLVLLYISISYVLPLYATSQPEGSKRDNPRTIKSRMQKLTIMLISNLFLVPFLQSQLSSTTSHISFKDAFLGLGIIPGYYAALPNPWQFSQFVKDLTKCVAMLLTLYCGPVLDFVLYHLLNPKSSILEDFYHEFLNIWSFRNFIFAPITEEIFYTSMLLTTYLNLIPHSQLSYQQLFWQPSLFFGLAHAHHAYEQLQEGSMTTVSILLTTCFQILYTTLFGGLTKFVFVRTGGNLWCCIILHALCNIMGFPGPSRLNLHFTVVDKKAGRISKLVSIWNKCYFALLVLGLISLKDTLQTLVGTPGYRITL
# MT1-MMP act inh – blockers of MT1-MMP proenzyme processing, primary screen, HT1080 RFP-PRO-GFP cells, GFP/RFP fluorescence; 0.061% of 360,000 active; GFP/RFP ratio fluorescence, overnight; percent of plate control window, DMSO zero; Matrix metalloproteinase-14 (Homo sapiens), P50281; GFP/RFP ratio change, % at 20 µM; AID 651647, 2012;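 active = GFP/RFP ratio change of at least 30% with cell ATP level not reduced by more than half and red fluorescence within 50% of control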; also: strong numbers were not always called active
#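 Compound: 20 µM single dose, 1% DMSO / System: HT1080 RFP-PRO-GFP cells / Controls: DMSO and RFP-L50D-GFP cell wells / Read-out basis: GFP/RFP fluorescence ratio / Schedule: overnight compound exposure at 37 °C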
# Env fusion inh – inhibitors of HIV-1 Env-driven cell-cell fusion, primary screen, HeLa-JRFL effector, CEM21 target cells, luciferase; inhibition, % at 12.3 µM; 1.1% of 360,000 active;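 active = mean replicate inhibition score of at least 50 and every replicate individually at or above 50; inconclusive = only one of the two criteria met; inactive = mean below 50 and not all replicates reaching 50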;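 also: 0% = plate neutral controls and 100% = maraviroc near 300 nM; one replicate is shown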
# UUG fidelity – modulators of yeast start codon fidelity, primary screen, whole organism, S. cerevisiae, single point, plate reader; AID 602363, 2012; activity score, % at 18.7 µM; S. cerevisiae UUG-firefly luciferase reporter, luminescence/redox ratio; 0.13% of 350,000 active;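 active = replicate mean at a twofold rise or more, about +100% in these data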;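 also: firefly luciferase made from a UUG start codon reports start codon fidelity; reporter light over untreated wells divided by growth signal over untreated wells; some hits fall short of that in this replicate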
# eIF4H FP inh – human eIF4H binding inhibitors, primary screen, translation initiation inhibitor project, biochemical, uHTS, fluorescence polarization; inhibition, % at 35 µM; Eukaryotic translation initiation factor 4H (Homo sapiens), Q15056; 0.94% of 290,000 active; eIF4H fluorescence polarization binding assay;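 active = 50% or more with normal probe brightness, or confirmed in later tests; inconclusive = above 50% with abnormal brightness, or retests that disagree; inactive = below 50% or failed in later tests; about a fifth of its hits are not listed in these tables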;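 also: calls also rest on retests at 20 µM and on dose response follow-up; 0% = protein and probe with vehicle and 100% = probe without protein; strong numbers were not always called active; many hits fall short of the cut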
# CSC inhib – cancer stem cell viability inhibitors, primary screen, luminescence | cancer stem cell-like cells viability | inhibition, % at 7.5 µM | 1.1% of 300,000 active | AID 2717, 2010;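 active = mean at 75% or more and at least half the replicates too; inconclusive = mean and replicates disagree; tested in HMLE shEcad cells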;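 also: 0% = median of negative and 100% = median of positive control wells; the first replicate is given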
# PABP FP inh – PABP poly(A) RNA binding inhibitors, primary screen, biochemical, fluorescence polarization, uHTS; AID 2014, 2009; Polyadenylate-binding protein 1 (Homo sapiens), P11940; inhibition, % at 35 µM; 1% of 290,000 active;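 active = 50% or more with normal probe brightness, or confirmed in later tests; inconclusive = above 50% with abnormal brightness, or retests that disagree; inactive = below 50% or failed in later tests; about a fifth of its hits are not listed in these tables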;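 also: calls also rest on retests at 20 µM and on dose response follow-up; controls were probe without protein and protein plus probe with vehicle; some compounds called inactive have numbers as strong as hits; many hits fall short of the cut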
# Target sequence (P11940 whole entry, looked up): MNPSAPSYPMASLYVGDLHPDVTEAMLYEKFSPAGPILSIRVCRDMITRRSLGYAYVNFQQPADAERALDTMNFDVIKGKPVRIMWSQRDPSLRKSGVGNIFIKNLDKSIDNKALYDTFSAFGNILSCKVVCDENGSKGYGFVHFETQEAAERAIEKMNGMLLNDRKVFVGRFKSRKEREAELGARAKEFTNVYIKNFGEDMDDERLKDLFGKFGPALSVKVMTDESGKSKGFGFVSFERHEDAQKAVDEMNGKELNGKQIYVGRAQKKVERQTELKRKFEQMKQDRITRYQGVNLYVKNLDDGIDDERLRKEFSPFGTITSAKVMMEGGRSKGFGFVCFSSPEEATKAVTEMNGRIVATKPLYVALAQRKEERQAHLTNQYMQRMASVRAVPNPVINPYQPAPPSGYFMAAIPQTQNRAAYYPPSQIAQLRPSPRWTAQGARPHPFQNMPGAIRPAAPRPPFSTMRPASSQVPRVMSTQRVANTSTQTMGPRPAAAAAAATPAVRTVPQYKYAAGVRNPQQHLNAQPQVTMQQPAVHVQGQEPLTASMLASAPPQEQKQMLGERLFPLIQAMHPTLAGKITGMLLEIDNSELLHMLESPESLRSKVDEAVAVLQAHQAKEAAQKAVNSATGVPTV
# eIF4H FP inh retest – further read-out of eIF4H FP inh, marked with its call; inhibition, %; compound at 20 µM; confirmation average;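 mean of two retest wells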
# MT1-MMP act inh RFP – recorded beside MT1-MMP act inh, whose call it bears; RFP signal change, %; measured here: RFP expression control read;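 0 = vehicle wells; hits needed this value within 50% of zero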
# Starred values were filed as active, the others as inactive; i = inactive; ? = inconclusive; . = no result given; & = joins results of further samples.
SMILES,Rce1 inhib,MT1-MMP act inh,MT1-MMP act inh RFP,Env fusion inh,UUG fidelity,eIF4H FP inh,CSC inhib,PABP FP inh,others
CC(C)(C)C1C/C(=C/c2ccccn2)C(=O)/C(=C/c2ccccn2)C1 (stereo not drawn),i,-19,-39,.,-6,17,67,-14,
Cc1cc(C)cc(NC(=S)NCCc2c[nH]c3ccccc23)c1,i,3,-6,2,-29,-8,0,0,
Cc1c(C(=O)OCC(=O)N2CCCCC2C)oc2ccccc12 (stereo not drawn),.,-1,-1,.,-14,.,-4,.,
O=C(c1ccc(Cl)s1)N(Cc1nnc(-c2ccccc2Cl)o1)C1CC1,i,1,0,-10,.,.,-11,.,
O=C(Nc1ccccc1F)c1cnccn1,i,1,3,5,-11,-5,1,-7,
CC1CC(=O)Nc2ccccc2N1S(=O)(=O)c1cccs1 (stereo not drawn),i,-2,2,14,12,5,-3,-11,
CN(C(=O)CSc1nnc(-c2ccccc2F)n1N)C1CCCCC1,.,0,-2,-1,2,.,-14,.,
CC1=C(C(=O)N2CCOCC2)CC(CC(=O)NC2CCCCC2)C(=O)N1Cc1ccc(F)cc1 (stereo not drawn),.,7,7,-9,-1,.,.,.,
NC(=O)CCN1CCN(Cc2cn[nH]c2-c2cccc3ccccc23)CC1,i,-6,1,-2,.,-11,-9,2,
C/C(CC(=O)NCc1ccc(Cl)cc1)=N\NC(=O)c1ccccc1F,.,3,4,3,.,0,-2,-4,
CC(=O)Nc1nnc(SCC(=O)N2CCCc3ccccc32)s1,i,-1,2,0,.,-1,8,-10,
COc1ccc(S(=O)(=O)Nc2ccc(-c3ccc4nncn4n3)cc2)c(OC)c1,i,-9,1,-5,.,.,19,.,
C[C@H](CO)N1C[C@H](C)[C@@H](CN(C)C(=O)c2ccccc2)OCc2cn(nn2)CCCC1=O,.,-1,3,-2,13&4,.,.,.,
Cc1cc(NC(=O)c2ccccc2C)no1,.,2,4,-1,-7,1,-7,-8,
COC(=O)c1sc2ccccc2c1-n1cccc1C(=O)C(=O)Nc1ccccc1,i,-2,0,.,-10,4,28,-2,
Cc1ccc(/C=C/C(=O)O)cc1S(=O)(=O)N(CCO)CCO,i,2,-3,-12,-4,6,.,?,eIF4H FP inh retest=28
CC(=O)NN1C(=O)c2ccccc2NC1c1ccco1 (stereo not drawn),i,3,4,6,-10,-7,-12,4,
O=C(CCc1ccc(S(=O)(=O)NCCc2ccccc2)cc1)N1CCN(Cc2ccc3c(c2)OCO3)CC1,i,2,-16,77*,17,-4,-3,-5,
Clc1ccc2c(c1)-c1[nH]ncc1CS2,i,1,-2,20,.,-5,1,9,
CN1CCN(C(=O)CCN2C(=O)/C(=C\c3ccccc3F)SC2=S)CC1,i,1,2,-19,-8,2,29,-4,
CCCc1cc(=O)oc2c3c(cc(OCC(=O)N[C@@H](C)C(=O)O)c12)OC(C)(C)CC3,?,1,3,8,2,6,1,-6,
C=CCn1c(=S)[nH]c2nc3c(cc2c1=O)CCCC3,i,3,-3,.,-11,-2,17,2,
Cc1ccc(-c2cc(Cc3ccccn3)c(=O)[nH]n2)cc1,i,-2,-1,-2,-25,5,-1,6,
O=C(NCc1ccc2c(c1)OCO2)c1ccc(CS(=O)Cc2cccc(Cl)c2)o1 (stereo not drawn),i,4,0,31,-1,4,-16,-3,
O=C(c1cc2ccccc2oc1=O)N1CCN(c2ccccn2)CC1,i,3,0,-20,-10,-6,-9,-1,

# Sorted by formula weight (lowest first): some entries from above.
SMILES,Rce1 inhib,MT1-MMP act inh,MT1-MMP act inh RFP,Env fusion inh,UUG fidelity,eIF4H FP inh,CSC inhib,PABP FP inh,others
C=CCn1c(=S)[nH]c2nc3c(cc2c1=O)CCCC3,i,3,-3,.,-11,-2,17,2,
CC1CC(=O)Nc2ccccc2N1S(=O)(=O)c1cccs1 (stereo not drawn),i,-2,2,14,12,5,-3,-11,
C/C(CC(=O)NCc1ccc(Cl)cc1)=N\NC(=O)c1ccccc1F,.,3,4,3,.,0,-2,-4,

# The list continues:
SMILES,Rce1 inhib,MT1-MMP act inh,MT1-MMP act inh RFP,Env fusion inh,UUG fidelity,eIF4H FP inh,CSC inhib,PABP FP inh,others
O=C(Cc1ccccc1F)OCN1C(=O)c2ccccc2C1=O,i,-3,-1,5,3,2,-1,2,
O=C(COC(=O)/C=C/c1cccc(C(F)(F)F)c1)NCc1ccccc1,i,2,2,18,.,-1,1,38,
COc1ccc(C)cc1NC(=O)CCCN1C(=O)NC(C)(C)C1=O,.,-4,0,.,-38,.,-7,.,
CCCS(=O)(=O)c1ccc(COC(=O)c2ccc(NC(C)=O)cc2)cc1,i,1,2,11,.,-3,-11,10,
CC(=O)c1ccc(NC(=O)N[C@@H](CC(C)C)C(=O)O)cc1,i,0,5,.,-10,-2,34,-3,
O=C(O)c1nccnc1C(=O)NCc1csc2ccc(Cl)cc12,i,-1,1,8,-20,6,-2,4,
Cn1cccc1CNCc1ccc(F)cc1,i,-3,6,-6,-16,8,-3,4,
O=C(COc1ccccc1-c1ccccc1)N/N=C/c1ccncc1,i,1,-11,-23,.,-6,-12,0,
O=C1CC(/C=C/c2ccccc2)=Nc2ccccc2N1,i,-5,-2,3,-13,-1,10,-6,
O=C(/C=C/c1cccs1)N1CCN(c2ccc(F)cc2)CC1,i,0,0,4,.,-7,.,5,
Cc1ccc(OCc2cc(C(=O)N3CCCC(O)C3)no2)cn1 (stereo not drawn),i,2,1,-5,-13,-13,-13,8,
c1ccc2oc(C3=NNC(=NC4CC4)SC3)cc2c1,i,1,3,?,.,2,13,11,
N#Cc1cnn(-c2cccc(Cl)c2)c1N,i,-1,1,-20,.,2,9,12,
Cc1cccc(-n2c(Cc3cc(=O)[nH]c(=O)[nH]3)nnc2SCC(=O)NCc2ccco2)c1,.,-8,-4,-13,.,.,-8,.,
CC(=O)Nc1cccc(NC(=O)CCn2c(=O)sc3ccccc32)c1,i,6,-1,21,4,-7,7,1,
Cc1ccc(-c2csc3nc4ccc(C(=O)NCCO)cc4c(=O)n23)cc1,i,0,2,-22,-10,-4,-3,-8,
CCc1cc(C(=O)N(C)CC(=O)Nc2c(Cl)cccc2Cl)sc1C,.,0,-3,6,-7,.,.,.,
Cc1ccc(-c2nnc(COC(=O)c3cc(=O)[nH]c4ccccc34)o2)cc1,i,-6,3,-18,-6,0,-8,-3,
CCc1ccc(CCC(=O)Nc2nc(CC(C)=O)ns2)o1,.,-4,9,-198,-11,10,7,14,
OC[C@@H]1[C@@H](c2ccccc2)C(c2ccccc2)=NN1c1ccccc1,.,1,-5,-27,-5,.,.,.,
Cc1ccc(S(=O)(=O)N2CCC(C(=O)N3CCC(C(=O)NCC4CCCO4)CC3)CC2)cc1 (stereo not drawn),i,5,2,.,28,-9,-13,1,
COC(=O)[C@H](CCSC)NC(=O)Cn1cnc2c(SC)nc(N)nc21,.,1,4,0,-12,.,.,.,
CC1(C)C=Cc2c(c3c(c4c(=O)c(-c5ccc(O)cc5)coc24)OC(C)(C)CC3)O1,i,-6,-13,.,-9,-7,100*,12,
O=C(C1CCCN(CCCc2ccccc2)C1)N1CCCCCC1 (stereo not drawn),i,4,4,-8,.,11,8,3,
CN(CC(=O)NNC(=O)CCNS(=O)(=O)c1ccccc1)S(=O)(=O)c1ccc(Cl)cc1,i,-1,1,-5,.,.,3,.,

# Compounds above that contain an aryl thioether with sulfur outside any ring (four):
SMILES,Rce1 inhib,MT1-MMP act inh,MT1-MMP act inh RFP,Env fusion inh,UUG fidelity,eIF4H FP inh,CSC inhib,PABP FP inh,others
CN(C(=O)CSc1nnc(-c2ccccc2F)n1N)C1CCCCC1,.,0,-2,-1,2,.,-14,.,
CC(=O)Nc1nnc(SCC(=O)N2CCCc3ccccc32)s1,i,-1,2,0,.,-1,8,-10,
Cc1cccc(-n2c(Cc3cc(=O)[nH]c(=O)[nH]3)nnc2SCC(=O)NCc2ccco2)c1,.,-8,-4,-13,.,.,-8,.,
COC(=O)[C@H](CCSC)NC(=O)Cn1cnc2c(SC)nc(N)nc21,.,1,4,0,-12,.,.,.,

# Following part.
SMILES,Rce1 inhib,MT1-MMP act inh,MT1-MMP act inh RFP,Env fusion inh,UUG fidelity,eIF4H FP inh,CSC inhib,PABP FP inh,others
COc1ccc(CNC(=O)C(C)Cc2ccccc2)cc1O (stereo not drawn),i,-3,6,?,-16,-10,-20,-2,
NC(=O)c1ccc(NC(=O)COC(=O)C2CC3C=CC2C3)cc1 (stereo not drawn),.,0,3,.,0,.,-16,.,
CCOCCCNC(=O)C(NC(=O)c1ccc(NC(C)=O)cc1)c1ccc(C)cc1 (stereo not drawn),i,-2,2,.,.,-11,-7,-6,
CCOc1ccc(CNC2CCCCCCC2)cc1OC,i,3,2,-112,-12,-4,-11,9,
CCN(CC(=O)Nc1c(F)cccc1F)C(=O)c1ccc(S(=O)(=O)N2CCCCC2)cc1,i,3,-4,-6,.,.,-2,.,
O=C(NCCSc1c[nH]c2ccccc12)c1ccc(Br)o1,i,5,3,30,-13,-3,-9,-9,
Cc1c(C(C)(C(=O)O)c2c(C)n(C)c3ccccc23)c2ccccc2n1C,i,.,.,-12,.,14,13,14,
COc1ccc(/C(O)=C(\C#N)c2nc3ccccc3n2C)cc1OC,i,8,0,5,-2,-10,2,-11,
COC(=O)C(CC(=O)c1ccc(C)cc1)n1cccn1 (stereo not drawn),i,1,-1,14,-21,-4,-8,7,
CCc1c(C)nc2ncnn2c1NCCc1ccccc1,i,-12,-15,40,.,-4,-3,-3,
O=C(Cc1ccccc1)NCCS(=O)(=O)N1CCN(c2ccccc2)CC1,i,0,2,14,3,.,.,.,
COc1ccc(CC2c3cc(OC)c(OC)cc3CC[N+]2(C)CCC(=O)OCCCCCOC(=O)CC[N+]2(C)CCc3cc(OC)c(OC)cc3C2Cc2ccc(OC)c(OC)c2)cc1OC (stereo not drawn),.,-6,-3,10,-15,.,20,.,
O=C(N/N=C1\CCCc2ccccc21)c1cccc(Br)c1,i,2,0,-31,-9,-5,6,10,
O=C(CN1CCN(c2ccccn2)CC1)Nc1ccc(F)cc1F,i,1,0,6,-13,0,0,-11,

# Screening data deposited in PubChem by several laboratories.

# The list is partial; rates above refer to the full screens.
